2A firefly: Primary qHTS Assay for Foot and Mouth Disease Virus Antivirals against NCGC Sytravon and CBC Compound Libraries: Firefly Luciferase Signal; Potency, µM (highest dose often 57.5 µM), for the others: at the highest dose signal change, negative = less light; HEK cells with a luciferase reporter of 2A StopGo recoding; 120,000 compounds, 0.23% hits; AID 1745856, 2022; active = well fitted falling curve with a large enough effect; inconclusive = small, poorly fitted or top-dose-only effect; inactive = no such curve, though single readings can be large or run the other way; note: nearly all actives have a fitted effect of over 60% in size; overnight with compound
2A Renilla: Primary qHTS Assay for Foot and Mouth Disease Virus Antivirals against NCGC Sytravon and CBC Compound Libraries: Renilla Luciferase Signal; HEK cells with a luciferase reporter of 2A StopGo recoding; Potency, µM (top dose mostly 57.5 µM), inactives show at the highest dose signal change, negative = less light; 120,000 compounds, 0.32% hits; active means well fitted falling curve with a large enough effect; inconclusive means small, poorly fitted or top-dose-only effect; inactive means no such curve, though single readings can be large or run the other way; note: nearly all actives have a fitted effect of over 55% in size; overnight with compound
* hit, by the source's call; [ ] = another dose, or the depositor's remark. % is set by controls: 0 for no effect and ±100 for the full control effect; potency is the fitted concentration of half-maximal effect.

Screening COc1cc(NC(=O)CCn2nc(C)cc2C)cc(OC)c1OC returned 2A firefly -14% and 2A Renilla 1%.
For CSc1ncccc1C(=O)Nc1cc(S(=O)(=O)N(C)C)cc(C)c1C the results were 2A firefly 3% and 2A Renilla 7%.
CCc1ccc(C(=O)COC(=O)C(Cc2c[nH]c3ccccc23)NC(=O)c2ccc(CC)cc2)cc1 (configuration not stated) was read as 2A firefly -1% and 2A Renilla -7%.
`CCCCN(CC)CCCNC(=O)c1nn(-c2ccc(OC)cc2)c(=O)c2c1c1ccccc1n2C` gave 2A firefly -15% and 2A Renilla -4%.
Screening C/C=C/Cn1c(SCCCCCC)nc2c1c(=O)[nH]c(=O)n2C returned 2A firefly 18% and 2A Renilla 4%.
CC(C)CCOc1ccc(/C=C/c2nc3ccccc3s2)cc1 was read as 2A firefly inconclusive and 2A Renilla 10%.
Screening CCOC(=O)c1ccc(NC(=O)Cn2cc(S(=O)(=O)Cc3ccccc3F)c3ccccc32)cc1 returned 2A firefly 5% and 2A Renilla 6%.
Screening CCc1nnc2c(Nc3cc(OC)c(Cl)cc3OC)nc3ccccc3n12 returned 2A firefly 11% and 2A Renilla -1%.
For COc1ccc(CNC(=O)c2sc3nc4n(c(=O)c3c2C)CCCCC4)cc1 the results were 2A firefly inconclusive and 2A Renilla 12%.
Screening Cc1oc2ccc(O)c(CN3CCN(C)CC3)c2c1C(=O)Nc1cccc(Cl)c1C returned 2A firefly -11% and 2A Renilla -9%.
Cc1c(-c2ccccc2)oc2c(C(=O)NC3CC3)cccc2c1=O was read as 2A firefly 129%[activator] and 2A Renilla 15%.
For CCOc1cc(C#N)c(-n2nnc3c(sc4nc(C)cc(C)c43)c2=O)cc1OCC the results were 2A firefly 3% and 2A Renilla -7%.
COc1cccc(CNC(=O)c2cc(-c3ccc(Cl)cc3)n[nH]2)c1 was read as 2A firefly 18% and 2A Renilla -4%.
For NC(=O)CCc1nnc(SCC(=O)c2c[nH]c3ccccc23)n1C1CC1 the results were 2A firefly 14% and 2A Renilla -2%.
For O=C(CSc1nc2cc([N+](=O)[O-])ccc2o1)NC12CC3CC(CC(C3)C1)C2 the results were 2A firefly 13% and 2A Renilla -8%.
For COc1ccc(-c2cc(C(=O)O)c3cc(C)cc(C)c3n2)cc1 the results were 2A firefly 137%[activator] and 2A Renilla 20%.
Screening CCOC(=O)c1cnc(NCc2ccc(OC)cc2OC)c2ccccc12 returned 2A firefly -9% and 2A Renilla -13%.
For Cc1ccc(Oc2ncnc3c2cnn3-c2ccccc2)cc1 the results were 2A firefly 170%[activator] and 2A Renilla 0%.
Cc1ccsc1CN(C(=O)c1ccc(Br)cc1)C1CCS(=O)(=O)C1 (configuration not stated) was read as 2A firefly 5% and 2A Renilla 2%.
For O=C(CSCc1ccccc1)NCC1CCCO1 (configuration not stated) the results were 2A firefly 89%[activator] and 2A Renilla 5%.
`Cc1ccc(-n2nc(C)c3c(C)c(CCC(=O)NC(C)c4ccccc4)c(C)nc32)cc1` (configuration not stated) gave 2A firefly -19% and 2A Renilla -15%.
Cc1ccc(NC(=O)CCS(=O)(=O)c2ccc3nc(C)sc3c2)cc1 was read as 2A firefly 0% and 2A Renilla -11%.
`CC(=O)Nc1ccc(NCc2c(C#N)c3ccccc3n2C)cc1` gave 2A firefly -8% and 2A Renilla -10%.
`CCOc1ccc(-c2cc(NC(=O)c3c(F)cccc3F)c(C(=O)OC)s2)cc1` gave 2A firefly -7% and 2A Renilla -12%.
`COc1ccc(Cn2c(SCc3ccc(C(=O)NCc4cccs4)cc3)nc3cccnc32)cc1` gave 2A firefly 16% and 2A Renilla 35%[activator].
Screening O=C(Nc1cccc(-c2nnnn2C2CC2)c1)c1c2c(nc3ccccc13)CCC2 returned 2A firefly -1% and 2A Renilla 4%.
`Cc1csc2nc(COC(=O)c3ccccc3NC(=O)c3ccc(C(C)(C)C)cc3)cc(=O)n12` gave 2A firefly -18% and 2A Renilla -10%.
`Cc1ccccc1CSc1nnc(-c2c[nH]c3ccccc23)o1` gave 2A firefly -62% and 2A Renilla inconclusive.
Screening CCOc1ccc(NC(=O)c2nc(S(=O)(=O)Cc3ccc(C)cc3)ncc2Cl)cc1 returned 2A firefly 25% and 2A Renilla -5%.
Screening CCC(=O)N1CCc2cc(CNS(=O)(=O)c3cc(OC)ccc3OC)ccc21 returned 2A firefly 16% and 2A Renilla -15%.
CCc1nn(CC(=O)NCCc2ccc(OC)cc2OC)c(=O)c2cc3c(OC)cccc3n12 was read as 2A firefly -3% and 2A Renilla -4%.
O=C(Nc1nn[nH]n1)c1cc(-c2ccccc2)nc2ccccc12 was read as 2A firefly -4% and 2A Renilla -8%.
Screening Cc1cccc(N2C(=O)CS(=O)(=O)C23C(=O)N(Cc2c(F)cccc2Cl)c2ccccc23)c1 (configuration not stated) returned 2A firefly inconclusive and 2A Renilla -21%.
`CCOc1ccc(Nc2c3c(nc4nncn24)CCC3)cc1` gave 2A firefly 2% and 2A Renilla 4%.
Screening Cc1ccc(C2=NN(CCC(=O)NCCc3cccc(C)c3)C(=O)CC2)cc1 returned 2A firefly 3% and 2A Renilla 3%.
`CCOC(=O)c1cccc(NC(c2nnc(-c3ccccc3)o2)c2ccccc2F)c1` (configuration not stated) gave 2A firefly 20% and 2A Renilla 60%[activator].
Screening CCCCOc1ccc(C(=O)NCCc2csc3nc(-c4ccccc4F)nn23)cc1 returned 2A firefly -14% and 2A Renilla 29%.
`Cc1ccc(C)c(N2CCN(C(=O)C3CCN(c4nc(-c5ccc(C(C)C)cc5)no4)CC3)CC2)c1` gave 2A firefly inconclusive and 2A Renilla -6%.
CCC[C@@H]1C[C@@H](C(=O)N[C@@H]([C@H]2O[C@H](SC)[C@H](O)[C@@H](O)[C@H]2O)[C@@H](C)O)N(C)C1 was read as 2A firefly -15% and 2A Renilla -6%.
For O=S(=O)(Nc1nc2ccccc2nc1N1CCCCCC1)c1ccccc1 the results were 2A firefly 0% and 2A Renilla 172%[activator].
For CCOc1ccc(S(=O)(=O)N2CCN(C(C(=O)O)c3c[nH]c4ccccc34)CC2)cc1 (configuration not stated) the results were 2A firefly -11% and 2A Renilla -17%.
For Cc1oc2ccc(O)c(CN3CCCC(C)C3)c2c1C(=O)Nc1ccccc1 (configuration not stated) the results were 2A firefly -17% and 2A Renilla -17%.
Screening CC(=O)N1CCN(C(=O)c2sc(-c3ccc(OC(F)(F)F)cc3)nc2C)CC1 returned 2A firefly 1% and 2A Renilla 16%.
Screening COc1ccccc1CNC(=O)CCCn1c(=O)c2ccccc2n(CC(=O)Nc2c(C)cc(C)cc2C)c1=O returned 2A firefly -27% and 2A Renilla -17%.
For Cc1cc(C)c2nc(SCC(=O)N(C)CCC#N)cc(C)c2c1 the results were 2A firefly 12% and 2A Renilla 11%.
Screening O=c1c(-c2ccccc2)nnc2sc(-c3ccc(Cl)cc3)nn12 returned 2A firefly 4% and 2A Renilla -9%.
`CC(C)CC(NS(C)(=O)=O)C(=O)O` (configuration not stated) gave 2A firefly -1% and 2A Renilla 3%.
`Cc1ccccc1CN1C(=O)c2ccccc2S(=O)c2ccc(C(=O)NCc3ccccc3)cc21` (configuration not stated) gave 2A firefly -6% and 2A Renilla -1%.
For COc1cccc(-c2cc(C(=O)NCCc3ccc(C)cc3)[nH]n2)c1 the results were 2A firefly 23% and 2A Renilla 5%.
Screening CC(C)(C)c1ccc(S(=O)(=O)c2cn(CC(=O)Nc3ccccc3)c3ccccc3c2=O)cc1 returned 2A firefly 34%[activator] and 2A Renilla -11%.
CCC(C)NC(=O)c1ccc2nc(CCc3ccccc3)oc2c1 (configuration not stated) was read as 2A firefly 94%[activator] and 2A Renilla 14%.
`CN1CCN(CCCc2ccccc2)CC1` gave 2A firefly -10% and 2A Renilla -8%.
For Cc1c(C)n(-c2ccc(F)c(F)c2)c2ncnc(Cl)c12 the results were 2A firefly 10% and 2A Renilla 8%.
`Cc1ccc2nc(COc3ccccc3NC(=O)Nc3ccc(F)c(Cl)c3)cc(=O)n2c1` gave 2A firefly 0% and 2A Renilla -9%.
CCOc1ccccc1NC(=O)c1ncoc1-c1ccc(OC)c(OC)c1 was read as 2A firefly -7% and 2A Renilla 3%.
Screening COCCCNC(=O)c1cc(=O)[nH]c2ccccc12 returned 2A firefly -4% and 2A Renilla -5%.
`Fc1cccc(-c2nc3cc(Cl)ccc3o2)c1` gave 2A firefly 0% and 2A Renilla 5%.
`COc1ccccc1N1C(=O)NC(NC(=O)c2cccc(Cl)c2)(C(F)(F)F)C1=O` (configuration not stated) gave 2A firefly -13% and 2A Renilla -8%.
O=c1cc(-c2ccccc2)c2ccc3c(c2o1)CN(Cc1cccc(Cl)c1)CO3 was read as 2A firefly -9% and 2A Renilla 2%.
Screening CNC(=O)C1CCCCN1C(=O)Cc1nc(-c2cccs2)oc1C (configuration not stated) returned 2A firefly -12% and 2A Renilla 2%.

Fetched by structure from the entries so far, three records:
CCC[C@@H]1C[C@@H](C(=O)N[C@@H]([C@H]2O[C@H](SC)[C@H](O)[C@@H](O)[C@H]2O)[C@@H](C)O)N(C)C1 was read as 2A firefly -15% and 2A Renilla -6%.
CCc1ccc(C(=O)COC(=O)C(Cc2c[nH]c3ccccc23)NC(=O)c2ccc(CC)cc2)cc1 (configuration not stated) was read as 2A firefly -1% and 2A Renilla -7%.
`COc1ccccc1N1C(=O)NC(NC(=O)c2cccc(Cl)c2)(C(F)(F)F)C1=O` (configuration not stated) gave 2A firefly -13% and 2A Renilla -8%.

Carrying on:
For CCOc1ccc(NC(=O)c2sc3nc4n(c(=O)c3c2C)CCC4)cc1 the results were 2A firefly -8% and 2A Renilla -12%.
Screening Cc1cccc(NCc2nc3ccccc3n2CCOc2ccccc2C)c1 returned 2A firefly 21% and 2A Renilla 106%[activator].
Screening CS(=O)(=O)c1ncc(Cl)c(C(=O)N2CCN(c3cccc(Cl)c3)CC2)n1 returned 2A firefly inconclusive and 2A Renilla -4%.
N#CC1=C(N)OC(c2ccccc2)=C(C(=O)c2ccccc2)C1c1ccccc1 (configuration not stated) was read as 2A firefly 79%[activator] and 2A Renilla 51%[activator].
For Cc1cc(C)cc(NC(=O)CSc2nc(=O)n(Cc3ccccn3)c3c2CCC3)c1 the results were 2A firefly -10% and 2A Renilla 27%.
CC(=O)N1CCc2c(sc3c2c(=O)n(Cc2ccccc2)c(=O)n3Cc2ccc(C)cc2)C1 was read as 2A firefly -12% and 2A Renilla -6%.
For CC(C)c1ccc(NC(=O)CSC2=Nc3ccccc3C3=NC(CC(=O)NCc4cccs4)C(=O)N23)cc1 (configuration not stated) the results were 2A firefly 15% and 2A Renilla -15%.
Cc1cc(=O)[nH]c2nnc(SCc3ccc(F)cc3)n12 was read as 2A firefly -15% and 2A Renilla -4%.
For CCc1ccc(NC(=O)Cn2c(=O)nc(-c3ccccc3F)c3cc(Cl)ccc32)cc1 the results were 2A firefly 44% and 2A Renilla 13%.
`COc1cccc(NC(=O)COc2ccc3c(=O)c(Oc4ccc(F)cc4)coc3c2)c1` gave 2A firefly -1% and 2A Renilla -2%.
Screening COc1ccc(CNC(=O)CCCCCn2c(=O)[nH]c3ccccc3c2=O)cc1 returned 2A firefly 10% and 2A Renilla -20%.
`CC(C)C(NC(=O)c1ccc(C(C)(C)C)cc1)C(=O)OCC(=O)N1CCCC1` (configuration not stated) gave 2A firefly 0% and 2A Renilla -8%.
COc1cc(NC(=O)NCC2CCN(Cc3ccc(C)cc3)CC2)cc(OC)c1OC was read as 2A firefly -7% and 2A Renilla 3%.
Screening CC(C)c1ccc(N(CC(=O)O)S(=O)(=O)c2ccc3[nH]c(=O)c(=O)[nH]c3c2)cc1 returned 2A firefly -9% and 2A Renilla -1%.
Cc1ccc(Cn2nc(C)c(C(=O)NCc3cc(Cl)c4c(c3)OCCCO4)c2C)cc1 was read as 2A firefly inconclusive and 2A Renilla inconclusive.
For CCCCCN1C(C(=O)c2ccccc2)=C(NC(C)=O)c2ccccc2S1(=O)=O the results were 2A firefly -5% and 2A Renilla -5%.
`CC(=O)N1CCc2cc(S(=O)(=O)NC(Cc3ccccc3)C(=O)Nc3ccc(Cl)cc3)ccc21` (configuration not stated) gave 2A firefly -18% and 2A Renilla 0%.
For COc1ccc(Cn2c(CNC(=O)Cc3cccc([N+](=O)[O-])c3)nc3cccnc32)cc1 the results were 2A firefly -17% and 2A Renilla -8%.

Compounds listed so far containing a thiophene ring, fused or not:
For COc1ccc(CNC(=O)c2sc3nc4n(c(=O)c3c2C)CCCCC4)cc1 the results were 2A firefly inconclusive and 2A Renilla 12%.
For CCOc1cc(C#N)c(-n2nnc3c(sc4nc(C)cc(C)c43)c2=O)cc1OCC the results were 2A firefly 3% and 2A Renilla -7%.
Cc1ccsc1CN(C(=O)c1ccc(Br)cc1)C1CCS(=O)(=O)C1 (configuration not stated) was read as 2A firefly 5% and 2A Renilla 2%.
`CCOc1ccc(-c2cc(NC(=O)c3c(F)cccc3F)c(C(=O)OC)s2)cc1` gave 2A firefly -7% and 2A Renilla -12%.
`COc1ccc(Cn2c(SCc3ccc(C(=O)NCc4cccs4)cc3)nc3cccnc32)cc1` gave 2A firefly 16% and 2A Renilla 35%[activator].
Screening CNC(=O)C1CCCCN1C(=O)Cc1nc(-c2cccs2)oc1C (configuration not stated) returned 2A firefly -12% and 2A Renilla 2%.
For CCOc1ccc(NC(=O)c2sc3nc4n(c(=O)c3c2C)CCC4)cc1 the results were 2A firefly -8% and 2A Renilla -12%.
CC(=O)N1CCc2c(sc3c2c(=O)n(Cc2ccccc2)c(=O)n3Cc2ccc(C)cc2)C1 was read as 2A firefly -12% and 2A Renilla -6%.
For CC(C)c1ccc(NC(=O)CSC2=Nc3ccccc3C3=NC(CC(=O)NCc4cccs4)C(=O)N23)cc1 (configuration not stated) the results were 2A firefly 15% and 2A Renilla -15%.

The list is partial, so the mix of outcomes need not match the whole.
